Source: PubChem BioAssay
ClpP mod: qHTS Assay for Activators of ClpP; ATP-dependent Clp protease proteolytic subunit (Bacillus subtilis (strain 168)), P80244; purified B. subtilis ClpP, FRET peptide cleavage, 20 min; Potency, µM (titrated, usually from 57.5 µM), without a hit: at the highest dose activity change, negative = active; hit rate 1.9% among 340,000; AID 651965, 2013; active = well fitted falling curve with a large enough effect; inconclusive = small, poorly fitted or top-dose-only effect; inactive = no such curve, though single readings can be large or run the other way; note: the source files actives as falling curves though it sought activators and does not explain the sign; nearly all actives have a fitted effect of over 65% in size; many hits overshoot -100%
Target sequence (P80244 whole entry, looked up): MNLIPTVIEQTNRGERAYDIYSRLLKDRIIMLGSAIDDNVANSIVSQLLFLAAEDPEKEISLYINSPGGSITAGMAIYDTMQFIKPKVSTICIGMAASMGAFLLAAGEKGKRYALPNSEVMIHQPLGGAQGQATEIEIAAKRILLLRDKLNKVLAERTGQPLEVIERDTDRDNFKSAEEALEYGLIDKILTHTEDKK
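Purified B. subtilis ClpP, 10 microg/mL final in Tris/HCl pH8 with KCl, BSA, glycerol and Tween-20, cleaved an Abz/nitrotyrosine-quenched decapeptide. Fluorescence (ex 320, em 430) was read at 0 and 20 min at room temperature. Delta was normalized to 5.8 microM ADEP and DMSO/no-enzyme controls.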
* = called active by the depositor; ? = inconclusive. Potency is the fitted concentration of half-maximal effect. Only part of the results is shown, so the mix of outcomes need not match the whole.

SMILES	ClpP mod
CC(=O)CC1c2cc(F)ccc2C=C(c2ccsc2)N1c1ccc(-c2ccc(C(N)=O)cc2)cc1 (centres undefined)	5.0%
COc1ccc(C2Nc3ccc(NC(C)=O)cc3C(=O)N2Cc2cccc(Cl)c2)cc1COc1ccc(NC(C)=O)cc1 (centres undefined)	?
O=C(Nc1c(O)c2ccccc2oc1=O)c1cccc(F)c1	-0.3%
CCc1ccc(OCC(=O)N(Cc2ccc(C(C)C)cc2)C2CCS(=O)(=O)C2)cc1 (centres undefined)	0.3%
Cc1ccc(CNC(=O)Cn2cc(S(=O)(=O)Cc3cccc(Cl)c3)c3ccccc32)cc1	1.6%
CCOc1ccc(CNC(=O)c2cccc(NC(=O)N3CCSc4ncccc43)c2)cc1OC	-29.8%
CCOc1ccccc1CNS(=O)(=O)c1cc2c(cc1C)NC(=O)CO2	2.2%
COc1ccccc1NC(=O)c1sc2nc3c(c(C(F)(F)F)c2c1N)CN(C(C)=O)CC3	-0.4%
C=C1C=C(C(F)F)n2ncc(C(=O)NCCc3ccccc3OC)c2N1	-9.3%
CCC(CC)C(C(=O)NCc1ccccc1)N1CCN(CCN2CCOCC2)CC1 (centres undefined)	1.9%

A stretch from further up:
SMILES	ClpP mod
CC(=O)CC1c2cc(F)ccc2C=C(c2ccsc2)N1c1ccc(-c2ccc(C(N)=O)cc2)cc1 (centres undefined)	5.0%
COc1ccc(C2Nc3ccc(NC(C)=O)cc3C(=O)N2Cc2cccc(Cl)c2)cc1COc1ccc(NC(C)=O)cc1 (centres undefined)	?

(continued)
SMILES	ClpP mod
CCc1ccccc1NC(=O)Cn1c2ncccc2c(=O)n1-c1ccccc1	4.3%
COc1ccccc1NC(=O)Cn1nc(-c2ccc(C)cc2)c2c(c1=O)CCCC2	-1.2%
CC(=O)Nc1nonc1-c1nnc(SCC(=O)Nc2cc(C)ccc2C)n1-c1ccccc1	2.9%
C[N+]1(CC(=O)c2ccc(I)cc2)CCCc2ccccc21 (centres undefined)	-2.3%
COc1cccc(NC(=O)c2csc3c2CCCCC3)c1	-3.0%
COc1ccc(NC(=O)CN(c2ccc(C)cc2)S(=O)(=O)c2cccs2)cc1	1.5%
COc1ccc(NC(=O)c2nnn(CC(=O)Nc3c(C)cc(C)cc3C)c2N)cc1OC	0.5%
COc1ccc(-n2c(=O)c3ccc(C(=O)NCc4ccc(C)cc4)cc3n(CC(=O)Nc3cccc(F)c3)c2=O)cc1	?
Cc1ccc(N2CCN(Cc3nnc(-c4ccc5c(c4)OCO5)o3)CC2)c(C)c1	-5.4%
Cc1cc2nn(-c3ccc(F)cc3)nc2cc1NC(=O)c1ccc(OC(C)C)cc1	11.2%
Cc1ccc(NC(=O)c2ccc(CNS(=O)(=O)c3ccc4c(c3)C(C)(C)C(=O)N4C)cc2)cc1F	-1.3%
Cc1ccc(NC(=O)Cn2c(C)cc(C)c(C#N)c2=O)cc1F	-22.2%
CCc1ccccc1NC(=O)Cn1cc(S(=O)(=O)N2CCCC2)c(S(=O)(=O)N2CCCC2)c1	-2.7%
Cc1ccc(C)c(CN2C(=O)c3ccccc3Sc3ccc(C(=O)NCCCOC(C)C)cc32)c1	-1.4%
COc1ccc(Cn2c(C(=O)O)c(CNCC(C)c3ccccc3)c3ccc(OC)cc32)cc1 (centres undefined)	-19.3%
COc1ccc(C2=Nc3ccc(OC(F)(F)F)cc3NC(c3cccnc3)=N2)cc1	5.2%
CCC1OC(C2CC2)CC2=C1C(=O)OC(C)(C)O2 (centres undefined)	1.8%
COc1ccc(OC)c(NC(=O)CSc2nnc3ccc4ccccc4n23)c1	-4.4%
Cc1ccc(Cn2ccnc2SCC(=O)NCc2ccccc2)cc1	0.2%
COc1ccc(C)cc1NC(=O)C(Cc1ccccc1)NS(=O)(=O)c1ccc(Br)s1 (centres undefined)	-0.1%

Fetched by compound from the entries so far:
SMILES	ClpP mod
COc1ccccc1NC(=O)Cn1nc(-c2ccc(C)cc2)c2c(c1=O)CCCC2	-1.2%
CCOc1ccccc1CNS(=O)(=O)c1cc2c(cc1C)NC(=O)CO2	2.2%
Cc1ccc(N2CCN(Cc3nnc(-c4ccc5c(c4)OCO5)o3)CC2)c(C)c1	-5.4%
Cc1ccc(CNC(=O)Cn2cc(S(=O)(=O)Cc3cccc(Cl)c3)c3ccccc32)cc1	1.6%
COc1ccccc1NC(=O)c1sc2nc3c(c(C(F)(F)F)c2c1N)CN(C(C)=O)CC3	-0.4%
COc1ccc(NC(=O)c2nnn(CC(=O)Nc3c(C)cc(C)cc3C)c2N)cc1OC	0.5%
C[N+]1(CC(=O)c2ccc(I)cc2)CCCc2ccccc21 (centres undefined)	-2.3%

Later entries.
SMILES	ClpP mod
Cc1c(C(=O)OC2CCCCC2)[nH]c2c1C(=O)CC(c1ccccc1Cl)C2 (centres undefined)	0.9%
CCCSc1nc(-c2ccccc2)[nH]c1S(=O)(=O)c1ccc(C)cc1	-4.9%
COc1ccc(C(C(=O)Nc2c(C)cccc2C)n2c(=O)c(-c3ccco3)nc3ccccc32)cc1 (centres undefined)	-18.7%
CCc1ccc(CN(C(=O)Nc2cccc(Cl)c2)c2ccccn2)cc1	-2.9%
COc1ccc(-c2nc(CSc3nncn4c3cc3sccc34)c(C)o2)cc1OC	-2.4%
CC1CCCN(C(=O)CSc2c3c(nc4cc(Cl)ccc24)CCCC3)C1 (centres undefined)	-1.2%
O=C(CSc1nc(=O)n(CCN2CCOCC2)c2c1CCC2)Nc1ccc(Cl)c(Cl)c1	-2.2%
Cc1cc(C)cc(N2C(=O)CSC23C(=O)N(CC(N)=O)c2ccccc23)c1 (centres undefined)	-0.5%
COc1ccc(N2CC(NC(=O)C3CC3)CC2=O)cc1OC (centres undefined)	1.8%
Cc1c2cnn(CC(=O)NCc3ccc(F)cc3)c(=O)c2c(C)n1Cc1cccc(Cl)c1	-5.6%
O=C(Nc1ccccc1Br)N1CCC(CN2CCCC2)CC1	-2.0%
CCOc1ccc(OCC)c(NS(=O)(=O)c2cc(-c3onc(C)c3C)ccc2OC)c1	2.0%
COCCNC(=O)CSc1nc(-c2ccc(C)cc2)[nH]c1-c1ccc(OC)cc1	?
C#CC(C)(CC)NC(=O)Cn1nnc(-c2ccc(OCc3ccccc3Cl)cc2)n1 (centres undefined)	-4.4%
CCn1nc(C)c2c(-c3ccccc3)cc(=O)n(C(C)C(=O)Nc3ccc(OC)c(OC)c3)c21 (centres undefined)	21.9%
CCC(Sc1nnc(C)n2c1cc1sccc12)C(=O)Nc1ccccc1F (centres undefined)	-17.0%
CC(C)(C)n1nnnc1C(c1ccccc1)N1CCN(c2ccc(C(F)(F)F)cn2)CC1 (centres undefined)	-9.0%
Cc1cc2n(n1)CCCN2C(=O)Nc1ccccc1C(F)(F)F	-1.7%
Cc1oc2ncn(CC(C)C)c(=O)c2c1C(=O)N(CCN(C)C)Cc1ccccc1	1.4%
Cc1ccc(C)c(N2CCN(C(=O)CCc3nnc4n(CC(C)C)c(=O)c5ccccc5n34)CC2)c1	-9.2%

Arranged by count of non-hydrogen atoms (smallest number first): three of the compounds above.
SMILES	ClpP mod
CCC(Sc1nnc(C)n2c1cc1sccc12)C(=O)Nc1ccccc1F (centres undefined)	-17.0%
CC(C)(C)n1nnnc1C(c1ccccc1)N1CCN(c2ccc(C(F)(F)F)cn2)CC1 (centres undefined)	-9.0%
Cc1ccc(C)c(N2CCN(C(=O)CCc3nnc4n(CC(C)C)c(=O)c5ccccc5n34)CC2)c1	-9.2%

Following part
SMILES	ClpP mod
CCOc1ccc(OCC)c(NS(=O)(=O)c2ccc(-c3coc(C)n3)cc2)c1	1.1%
CCOc1ccc(-c2nc3c(c(SCC(=O)N4CCCCC4)n2)Cc2ccccc2O3)cc1	-2.3%
Cc1cccc(-n2c(Cc3ccccc3)nnc2SCc2nc(-c3cccs3)no2)c1	1.4%
COc1cc(-c2noc(-c3cc(C(C)C)[nH]n3)n2)cc(OC)c1OC	-2.9%
Cc1ccc(-n2c(=O)c3c(C)c(C(=O)N(C)C)sc3n(Cc3ccccc3C)c2=O)cc1C	-0.1%
COc1ccc(-c2cc(C(=O)Nc3sc4c(c3C#N)CCCC4)no2)cc1OC	5.5%
CCn1cc(C(=O)NCCc2ccc(Cl)cc2)c(=O)c2cc(S(=O)(=O)N3CCCCCC3)ccc21	-0.7%
CC(C)Oc1ccc(CNC(=O)c2cccc(NC(=O)c3nsc4ccccc34)c2)cc1	-28.7%
O=C(C[C@H]1CC[C@@H]2[C@H](COC[C@H](O)CN2Cc2nccs2)O1)NCc1ccccc1Cl	-4.0%
CCOC(=O)c1c(C)[nH]c(C)c1S(=O)(=O)N1CCC(C(=O)Nc2ccc(F)cc2F)CC1	-3.3%
Cc1cccc(OCCCCn2c(C3CC(=O)N(c4ccccc4Cl)C3)nc3ccccc32)c1 (centres undefined)	-9.4%
Cc1ccc(C(=O)N2CCN(Cc3cc(=O)n4nc(-c5ccccc5)sc4n3)CC2)cc1	3.5%
Cc1ccc(CNC(=O)c2cnn(-c3cccc(C)c3)c2C2CCN(C(=O)OC(C)(C)C)CC2)cc1	-10.2%
CCOc1ccc(C(=O)NCCSc2c(C)[nH]c3ccccc23)cc1OCC	-4.8%
Cc1ccc(P(=O)(c2ccc(C)cc2)[C@@H](NC(c2ccccc2)c2ccccc2)c2ccccc2)cc1	-0.6%
COc1cc(Cl)c(NC(=O)CN(C)S(=O)(=O)c2ccc3[nH]c4c(c3c2)CCCC4)c(OC)c1	?
O=C1Nc2ccc(S(=O)(=O)Nc3ccccc3O)c3cccc1c23	-0.1%
CCOc1ccc(-c2cnc(NCc3ccc(OC)cc3OC)n2C)cc1	-7.0%
COc1ccccc1CCNC(=O)c1cc2c(=O)n3cccc(C)c3nc2n1C	-3.4%
O=C(Cn1c(=O)n(-c2ccccc2)c(=O)c2c3c(sc21)CCCC3)Nc1cccc(F)c1	0.0%
Cc1ccc(C(=O)NCC(c2ccco2)S(=O)(=O)c2cccs2)cc1C (centres undefined)	-1.4%
CCc1cccc(C)c1NC(=O)Cn1nnc(-c2nc(-c3ccccc3F)no2)c1N	-2.6%
Cc1cc(Cl)ccc1OCC(=O)Nc1c(Cl)ccc2nsnc12	-1.8%
Cc1c(C(=O)NCc2ccc(OC(C)C)cc2)sc2ncnc(N(C)C3CCCCC3)c12	-29.9%
CCOc1ccc(CCNC(=O)c2cc3c(=O)n(C)c4ccccc4c3s2)cc1OCC	-13.4%
CCOc1ccc(NC(=O)c2c(Nc3ccccc3C)sc(C(=O)c3ccccc3)c2N)cc1	-3.2%
O=C(Nc1ccc(Br)cc1)C1CCN(S(=O)(=O)c2cccc3nsnc23)CC1	1.7%
CCCc1c(-c2ccccc2Br)ncn1Cc1ccccc1OC	-1.2%
CCCn1c2ccccc2c2cnn(CC(=O)N3CCCC(C(=O)OCC)C3)c(=O)c21 (centres undefined)	4.7%
CN(C(=O)c1cc2c(Cl)nc3ccccc3c2s1)c1cccc(C(F)(F)F)c1	-1.1%
Cc1ccc(NC(=O)CCCn2c(=O)c3cccn3c3ccccc32)cc1Cl	-27.7%
CCOC(=O)[C@]12CCCC=C1N(Cc1ccccc1)C(=O)[C@H](CC(=O)NCC1CCCCC1)C2	-0.8%
CCC(=O)[C@@H](C)[C@@H](OC(C)=O)[C@H](C)C[C@@H](C)[C@H]1OC(=O)C[C@@]2(O)CC=C(C)C(O2)C(C)=CCCC[C@H](O[C@H]2C[C@@H](OC(N)=O)[C@H](OC(C)=O)[C@@H](C)O2)C=C[C@H](C)C[C@H]1C	0.6%
CCCN(c1ccccc1F)S(=O)(=O)c1ccc2c(c1)C(C)(C)C(=O)N2C	-1.2%
CCOc1ccc(-n2c(SCc3nc(-c4ccccc4C)no3)nnc2-c2ccccc2)cc1	0.8%
CCOc1ccccc1NC(=O)CSc1nnc2[nH]c(=O)cc(-c3ccccc3)n12	4.4%
CC(=O)c1ccc(NC(=O)NCCc2c[nH]c3ccccc23)cc1	0.1%
CCOc1ccc(CNC(=O)Cn2cc3c(n2)-c2c(oc(C(=O)N4CCOCC4)c2C)CC3)cc1	32.8%
Cn1c(=O)c2c(nc(NCCCCO)n2Cc2ccccc2Cl)n(C)c1=O	2.4%
Cc1ccc(S(=O)(=O)c2c(O)cc(C)c(NS(=O)(=O)c3ccc(Cl)cc3)c2C)cc1	0.2%
Cc1ccc(CNC(=O)C(=O)NCC(c2cccnc2)N2CCN(c3ccc(F)cc3)CC2)cc1 (centres undefined)	0.7%
CC(=O)c1cccc(NC(=O)CCCN2C(=O)COc3ccc(C)cc32)c1	-4.0%
O=C(CSc1nnc(-c2ccccc2)c(-c2ccccc2)n1)NC1CCCCC1	0.6%
Cc1ccc(NS(=O)(=O)c2ccc(NC(=O)N3CCCC3)cc2)cc1C	-1.2%
CCCc1cc(=O)n2[nH]c(NCc3ccc(CC)cc3)nc2n1	-15.5%
COc1cccc2cc(-c3nc(Cl)c4c5c(sc4n3)CC(C)CC5)c(=O)oc12 (centres undefined)	0.8%
Cc1ccc(NS(=O)(=O)c2cc(-c3cc(C)no3)ccc2C)c(Cl)c1	-0.3%
CC(=O)c1cc(-c2ccccc2)n(CC(=O)Nc2ccc(C)cc2C)c1C	1.9%
CC(=O)c1ccc(NC(=O)c2cnc(N3CCCC3)nc2C)cc1	-9.0%
COc1ccc(CCNC(=O)CCCn2c(=O)c3ccccc3n(Cc3ccc(F)cc3Cl)c2=O)cc1OC	-1.1%
COC(=O)[C@]12CCCCC=C1N(Cc1ccc3c(c1)OCO3)C(=O)[C@H](CC(=O)NCCC(C)C)C2	-1.0%
CCC(C)CN1C(=O)CN(S(C)(=O)=O)CC1(C)C(=O)Nc1ccc2c(c1)OCCO2 (centres undefined)	-2.4%
